Vif TR-FRET – inhibitors of Vif binding to APOBEC3G peptide, primary screen, biochemical, TR-FRET, GST-Vif 1-94, biotin-A3G peptide, dose response retest (AID 1117319); actives 0.57% (n = 260,000); TR-FRET GST-Vif / biotin-A3G peptide binding; higher % means a stronger effect; test concentration not given here; strong numbers were not always called active; inhibition, %; hits with a dose series show IC50 in µM;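 active means above the screen mean plus three standard deviations and confirmed in dose response; inconclusive means results disagree or hit not tested in dose response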;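 further: Vif residues 1-94 fused to GST binding biotinylated APOBEC3G peptide 110-148; 0% = full assay without inhibitor and 100% = GST in place of GST-Vif; retest series ran down from 100 µM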
FGF22 binding – shifts melting point of recombinant human FGF22 | Q9HCT0 | recombinant FGF22 thermal shift, SYPRO orange fluorescence; percent of sucrose octasulfate shift, DMSO zero | calls only at 9.99 µM | actives 1.5% (n = 340,000) | AID 651658;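 active means melting point raised past a set limit in the mean and every replicate; inconclusive means no clear call; three in four hits are not shown here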
Target sequence (Q9HCT0 whole entry, looked up): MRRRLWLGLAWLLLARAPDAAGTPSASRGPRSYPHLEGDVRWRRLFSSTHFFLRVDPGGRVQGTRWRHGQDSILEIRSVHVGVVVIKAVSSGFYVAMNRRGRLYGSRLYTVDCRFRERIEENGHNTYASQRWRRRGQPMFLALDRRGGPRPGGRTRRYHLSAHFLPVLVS
rRNA inh HTS – inhibits bacterial ribosomal RNA function over humanized ribosomes; E. coli WT GFP vs humanized-ribosome RFP mutants, fluorescence, 24 h; hits give low values; DMSO median 0, no signal -100; GFP signal change (wild-type ribosome), % (no concentration beside the values); actives 1.6% (n = 350,000); AID 720706;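 active means significant combined selectivity score with lowered wild-type GFP, culture density cut under 30%, mutant RFP and density less affected; inactive means any of these conditions unmet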; further: one replicate is shown; some compounds called inactive have numbers as strong as hits
ALR H2O2 inh – inhibitors of human sulfhydryl oxidase ALR. actives 3.8% (n = 290,000). purified ALR, DTT oxidation, H2O2 HRP-luminol luminescence. inhibition, % (no concentration beside the values). P55789;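 active means mean and each replicate at 75% or more; inconclusive means only one of the two met; inactive means neither met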;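 further: stock transfer was 7.5 nL into about 7.5 µL; 0% = neutral wells and 100% = wells with inactivated enzyme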
Target sequence (P55789 whole entry, looked up): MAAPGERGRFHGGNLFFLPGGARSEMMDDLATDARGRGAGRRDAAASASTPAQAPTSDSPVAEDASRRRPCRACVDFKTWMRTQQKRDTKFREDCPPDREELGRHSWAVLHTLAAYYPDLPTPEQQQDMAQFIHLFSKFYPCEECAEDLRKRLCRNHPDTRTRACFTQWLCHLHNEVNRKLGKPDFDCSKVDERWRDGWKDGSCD
HNF4A DNA FP – change in binding of human HNF4 alpha to DNA | P41235 | HNF4a-FITC DNA binding, fluorescence polarization, 1 h | activity change, % at 10 µM | actives 0.3% (n = 360,000) | AID 1224865; in the data active means activity change above about 30%, passing the limit was not always enough;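 further: controls were the assay level and a saturating level of protein; the project sought stronger binding though the title names inhibitors; some compounds called inactive have numbers as strong as hits; positive values seem to mean higher polarization but the record does not say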
AF4-AF9 inh – inhibitors of human MLL-AF4/AF9 interaction | inhibition, % at 10 µM | P42568 | actives 0.47% (n = 350,000) | AlphaScreen, biotin-AF4 peptide binding to FLAG-AF9;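 active means every replicate reaching a set inhibition limit, whatever the replicate mean, cut at about 25% in these data; inconclusive means mean inhibition reaches that limit but some replicates miss it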;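 further: 0% = plate neutral control median and 100% = total signal loss; the record names both 10 and 1 µM as test concentration; the first replicate is given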
Target sequence (P42568 whole entry, looked up): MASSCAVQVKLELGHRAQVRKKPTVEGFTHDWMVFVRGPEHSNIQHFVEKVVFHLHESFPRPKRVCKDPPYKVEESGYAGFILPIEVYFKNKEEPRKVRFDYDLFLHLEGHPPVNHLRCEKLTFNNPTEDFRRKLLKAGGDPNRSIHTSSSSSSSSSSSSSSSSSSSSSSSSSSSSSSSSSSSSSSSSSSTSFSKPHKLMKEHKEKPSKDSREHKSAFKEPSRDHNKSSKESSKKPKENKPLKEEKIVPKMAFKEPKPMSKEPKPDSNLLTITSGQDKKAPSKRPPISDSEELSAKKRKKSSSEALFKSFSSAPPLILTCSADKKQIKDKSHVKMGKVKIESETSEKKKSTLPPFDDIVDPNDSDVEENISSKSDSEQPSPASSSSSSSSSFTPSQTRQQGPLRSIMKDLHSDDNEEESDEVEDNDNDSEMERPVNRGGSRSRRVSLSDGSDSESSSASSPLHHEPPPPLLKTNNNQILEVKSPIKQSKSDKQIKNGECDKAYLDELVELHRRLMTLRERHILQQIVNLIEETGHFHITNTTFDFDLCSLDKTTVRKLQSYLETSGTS
Ecoli growth – blocks Escherichia coli growth; OD600, 23 h; hits give low values; OD600 absorbance (concentration not given with the values); actives 0.21% (n = 330,000); AID 1053175;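 active means OD600 absorbance below the run mean of sample wells minus 3.6 SD, in any replicate, cut at about 0.56 in these data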;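 further: stock transfer was 300 nL into about 60 µL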
rRNA inh HTS OD600 – further read-out of rRNA inh HTS, marked with its call; OD600 change, %; measured here: OD600 growth;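 optical density of the mix in the first replicate; 0 = DMSO median and -100 = no signal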
rRNA inh HTS RFP – recorded beside rRNA inh HTS, whose call it bears; RFP signal change, %; measured here: RFP humanized mutant strains;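 first replicate; 0 = DMSO median and -100 = no signal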
* = called active by the depositor; i = inactive; ? = inconclusive; . = not tested or not shown; & = joins results of further samples. A portion of the library; count on the stated rates, not on these rows.

FGF22 binding	Vif TR-FRET	ALR H2O2 inh	rRNA inh HTS	AF4-AF9 inh	rRNA inh HTS RFP	HNF4A DNA FP	Ecoli growth	rRNA inh HTS OD600	Molecule
i	.	.	5.0	-3.2	1.1	3.8	0.707	6.3	N#Cc1ccccc1NC(=O)COC(=O)c1ccc(F)cc1F
i	-2.0%	.	.	-0.6	.	0.0	.	.	O=C(Oc1ccc[nH]c1=O)c1ccccc1
.	-3.1%	48.7	.	.	.	2.1	0.643	.	Cc1c(NC(=O)Oc2ccccc2)sc(=S)n1C
i	-0.3%	-5.4	-0.2	-2.3	-8.5	0.5	0.67	6.3	CC(C)[C@H](NC(=O)c1ccccc1)C(=O)OCC(=O)Nc1ccc(Cl)cc1C(F)(F)F
.	7.4%	4.0	.	.	.	0.8	0.716	.	O=C(NC1CCN(C(=O)N2c3ccccc3Sc3ccccc32)CC1)c1ccco1
.	-12.4%	1.5	.	.	.	-2.0	0.676	.	Cc1ccc(C)c(NC(=O)C2CC(=O)N(C(C)C)C2)c1 (centres undefined)
i	.	.	0.3	0.8	0.3	.	.	1.0	CNC(=O)C[C@H]1CC[C@@H]2[C@H](COc3ccc(NC(=O)Nc4ccc(C)cc4)cc3C(=O)N2C)O1
i	-0.3%	.	2.4	1.2	-1.6	1.7	0.677	7.8	CCc1ccccc1NC(=O)C1=CN2CCS(=O)(=O)N=C2C=C1
i	.	.	1.0	-5.0	-0.9	0.9	.	3.6	Nc1ncnc2c1ncn2[C@@H]1O[C@H](C(=O)NCC2CCN(Cc3ccccc3)CC2)[C@@H](O)[C@H]1O
i	4.9%	-4.2	2.8	-1.5	3.1	-0.9	0.586	-8.1	CCCCn1c(N)c(N(Cc2ccccc2OC)C(=O)c2sccc2C)c(=O)[nH]c1=O
i	1.6%	0.1	7.8	4.0	1.9	3.8	0.694	12.0	Cn1c(O)c(N=Nc2ccccc2)c2ccccc21
i	3.1%	98.7*	-3.5	-2.4	2.3	0.4	0.687	-7.4	CC(=O)C1=C(c2ccccc2)N(C(C)=O)n2c(C)nnc2S1
.	0.8%	-0.7	2.5	-3.5	0.4	0.7	0.626	-1.3	CC(=O)Nc1ccc(S(=O)(=O)Nc2cc([N+](=O)[O-])ccc2C)cc1
i	-6.1%	.	5.7	-0.2	3.9	1.6	.	6.1	COc1ccc(C2=CCCC2)c(OC)c1
.	-44.6%	-0.9	.	.	.	1.6	0.683	.	CCc1sc(C(=O)Nc2ccsc2C(=O)OC)cc1Br
i	5.6%	-1.4	38.4	-54.5	0.0	-27.8	0.659	10.1	NC(=O)C[n+]1cccc2ccccc21
i	.	.	-2.4	-1.6	4.7	.	.	-7.6	O=C(C1CCCCC1)N1[C@H](CO)[C@@H]2c3ccccc3N(S(=O)(=O)c3ccccc3)C[C@@H]21
i	.	-13.2	2.2	-3.3	-0.2	2.0	0.692	2.8	Cc1ccc(-c2nnc(SCC(=O)N(CC(C)C)c3c(N)n(Cc4ccccc4)c(=O)[nH]c3=O)n2N)cc1
.	2.3%	-10.6	.	.	.	2.4	0.697	.	Cc1cccc[n+]1CC(=O)Nc1ccc([N+](=O)[O-])cc1Cl
.	16.2%	3.1	.	.	.	-1.4	0.704	.	CCCC1Cc2c(sc3ncnc(N)c23)CO1 (centres undefined)

The closing three compounds of the part before come first, to join the parts:
FGF22 binding	Vif TR-FRET	ALR H2O2 inh	rRNA inh HTS	AF4-AF9 inh	rRNA inh HTS RFP	HNF4A DNA FP	Ecoli growth	rRNA inh HTS OD600	Molecule
i	.	-13.2	2.2	-3.3	-0.2	2.0	0.692	2.8	Cc1ccc(-c2nnc(SCC(=O)N(CC(C)C)c3c(N)n(Cc4ccccc4)c(=O)[nH]c3=O)n2N)cc1
.	2.3%	-10.6	.	.	.	2.4	0.697	.	Cc1cccc[n+]1CC(=O)Nc1ccc([N+](=O)[O-])cc1Cl
.	16.2%	3.1	.	.	.	-1.4	0.704	.	CCCC1Cc2c(sc3ncnc(N)c23)CO1 (centres undefined)
i	1.9%	0.7	8.7	-0.6	-2.4	6.4	0.655	12.7	O=C(NC1CC1)c1cc2ccccc2o1
i	.	.	3.3	-4.2	-1.8	.	.	1.5	CC(=O)N1[C@@H](CO)[C@@H](c2ccccc2)C12CN(C(=O)Cc1ccccc1)C2
i	.	.	8.8	-0.6	4.0	-2.6	0.683	11.1	COc1ccc(N2C(=O)CC(Nc3cccc([N+](=O)[O-])c3)C2=O)cc1 (centres undefined)
i	-9.9%	-5.2	11.2	-3.0	0.6	-0.1	0.701	0.3	Cc1nc(-c2ccc(NC(=O)C(C)(C)C)cc2)c(-c2ccccc2)o1
i	25.6%	-14.5	1.4	-1.5	1.9	-2.4	0.729	-3.5	CC(/C=C1\SC(=S)N(CC(=O)N2CCN(c3ccccc3)CC2)C1=O)=C\c1ccccc1
.	2.9%	2.8	.	.	.	-2.0	0.813	.	O=C(CNS(=O)(=O)c1ccc2ccccc2c1)OCc1nnc(-c2ccccc2)o1
i	.	.	-0.5	1.4	-1.7	1.6	.	2.0	CCOC(=O)C1(C)CCN1C(=O)c1ccc(Cl)cc1Cl (centres undefined)
.	9.4%	1.7	.	.	.	-1.2	0.713	.	CCCSc1cc(N2CCCC2)nc(-c2ccccc2)n1
i	13.4%	.	0.2	1.0	-2.9	2.7	0.773	-22.2	COc1ccc(OC)c(-n2c(SC)nnc2-c2c[nH]c3ccccc23)c1
.	-7.2%	-2.2	.	.	.	-1.4	0.713	.	Cc1ccccc1N1C(=O)CN(Cc2sccc2C)C1=S

Part of the list above, field by field:
compound: O=C(NC1CC1)c1cc2ccccc2o1
  FGF22 binding: i; Vif TR-FRET: 1.9%; ALR H2O2 inh: 0.7; rRNA inh HTS: 8.7; AF4-AF9 inh: -0.6; rRNA inh HTS RFP: -2.4; HNF4A DNA FP: 6.4; Ecoli growth: 0.655; rRNA inh HTS OD600: 12.7
compound: CC(=O)N1[C@@H](CO)[C@@H](c2ccccc2)C12CN(C(=O)Cc1ccccc1)C2
  FGF22 binding: i; Vif TR-FRET: .; ALR H2O2 inh: .; rRNA inh HTS: 3.3; AF4-AF9 inh: -4.2; rRNA inh HTS RFP: -1.8; HNF4A DNA FP: .; Ecoli growth: .; rRNA inh HTS OD600: 1.5
compound: COc1ccc(N2C(=O)CC(Nc3cccc([N+](=O)[O-])c3)C2=O)cc1 (centres undefined)
  FGF22 binding: i; Vif TR-FRET: .; ALR H2O2 inh: .; rRNA inh HTS: 8.8; AF4-AF9 inh: -0.6; rRNA inh HTS RFP: 4.0; HNF4A DNA FP: -2.6; Ecoli growth: 0.683; rRNA inh HTS OD600: 11.1
compound: Cc1nc(-c2ccc(NC(=O)C(C)(C)C)cc2)c(-c2ccccc2)o1
  FGF22 binding: i; Vif TR-FRET: -9.9%; ALR H2O2 inh: -5.2; rRNA inh HTS: 11.2; AF4-AF9 inh: -3.0; rRNA inh HTS RFP: 0.6; HNF4A DNA FP: -0.1; Ecoli growth: 0.701; rRNA inh HTS OD600: 0.3

Additional entries
FGF22 binding	Vif TR-FRET	ALR H2O2 inh	rRNA inh HTS	AF4-AF9 inh	rRNA inh HTS RFP	HNF4A DNA FP	Ecoli growth	rRNA inh HTS OD600	Molecule
.	?	-7.1	.	.	.	-1.6	0.711	.	CCOC(=O)Cc1csc(NC(=O)CSc2nnc(C)n2C)n1
.	4.3%	.	9.5	-1.2	-0.7	2.4	0.652	7.2	O=C(CCC(=O)c1cccs1)NCCc1ccc(F)cc1
i	.	6.4	6.1	0.5	3.8	2.0	.	15.5	CCCCCCC[C@H](N)[C@H](O)C(=O)N(C)[C@@H](CCS(C)=O)C(=O)N[C@@H](Cc1ccc(O)cc1)C(=O)N[C@@H](Cc1ccc(O)cc1)C(=O)O (some centres undefined)
i	-1.9%	.	1.3	-3.8	-2.1	3.7	0.758	-6.0	CC(C)(C)C1CCc2c(sc(NC(=O)c3cc(C4CC4)on3)c2C#N)C1 (centres undefined)
i	?	-0.9	-5.4	0.5	2.0	-3.5	0.691	4.4	O=C(CNC(=O)/C(=C/c1ccccc1)NC(=O)c1ccc(Br)cc1)OCc1ccccc1
i	11.8µM*	70.5	4.2	0.2	-3.1	-2.5	0.631&0.797	-1.1	CC1OC(OCC2OC(Oc3c(-c4ccc(O)cc4)oc4cc(O)cc(O)c4c3=O)C(O)C(O)C2O)C(O)C(O)C1O (centres undefined)
i	12.0%	-0.9	-10.1	6.6	0.0	0.2	0.692	-44.4	COC(=O)c1ccc(OCC(O)CN2CCc3cc(OC)c(OC)cc3C2c2ccccc2)cc1 (centres undefined)
i	.	.	-1.2	-2.7	-1.9	.	.	2.5	O=C(C1CC1)N1CC2(C1)[C@@H](c1ccccc1)[C@@H](CO)N2Cc1nccs1
.	-6.0%	.	.	.	.	-3.4	0.62	.	Cc1ccc(NC(=O)c2ccccc2NS(=O)(=O)c2ccc(Cl)s2)cc1
.	7.2%	.	.	.	.	1.6	0.683	.	CC1(C)CC(=O)C(Sc2ccccc2[N+](=O)[O-])=C(O)C1
i	.	.	-2.6	-4.6	1.3	.	.	-3.7	C[C@H](CO)N1C[C@H](C)[C@H](CN(C)Cc2ccncc2)Oc2ncc(C#Cc3cccnc3)cc2C1=O
i	.	.	-8.2	-2.2	-3.4	-5.6	.	-3.4	Cc1ccc(NC(=S)NNC(=S)Nc2ccc(C)cc2C)cc1
i	-6.4%	3.9	1.1	5.2	4.0	-0.6	.	4.0	Cc1ccc(-c2nn(-c3ccccc3)cc2/C=N/NC(=O)c2ccncc2)o1
i	.	.	2.4	-0.3	1.5	.	.	2.5	CO[C@@H]1CN(C)C(=O)c2cc(NC(=O)c3cnccn3)ccc2OC[C@H](C)N(CCc2ccccc2)C[C@@H]1C
i	.	-12.8	5.5	10.4	1.2	1.2	0.795	11.1	COc1ccc(C)cc1NC(=O)CSc1nc2ccccc2nc1N1CC(C)OC(C)C1 (centres undefined)
.	-4.1%	-2.7	.	.	.	-0.1	0.761	.	C=CCn1c(SCc2ccc(C#N)cc2)nnc1-c1cccc(Cl)c1
i	.	.	3.2	-2.6	-5.1	.	.	13.0	C[C@@H]1CN([C@H](C)CO)C(=O)c2cc(-c3cccc(F)c3)cnc2O[C@@H]1CN(C)Cc1ccccn1
i	.	.	0.0	-1.4	-4.6	.	.	4.6	CO[C@H]1CN(C)C(=O)c2cc(C#N)ccc2OC[C@H]2O[C@H](CC[C@H]2OC)CCN(C)C(=O)[C@@H]1C
i	.	-9.1	-12.3	-0.4	-1.6	-2.0	0.722	-16.4	CC(C)c1ccc(C2NC(=S)NC3=C2C(=O)CC(C)(C)C3)cc1 (centres undefined)
